# Source: PubChem (several laboratories)
# RanGTP-Impb inh = inhibitors of RanGTP-importin-beta interaction, primary screen, biochemical, FRET, CFP-Ran, YFP-importin-beta, homogeneous; cell-free CFP-Ran/YFP-importin-beta FRET ratio; inhibition, % (test concentration not listed); actives 1.1% (n = 300,000);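 active means most replicates above 15%; inconclusive means exactly half above 15%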;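 further: 0% = DMSO wells and 100% = Ran loaded with GDP instead of GTP; wells of about 40 µL received 100 nL stock; the first replicate is given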
# Bfl-1 A1 inh = caspase 3/7 activation in MEF A1-2A-BIM cells, primary screen, A1 inhibitor project, cell-based, luminescence, HTS | Caspase-Glo 3/7 luminescence, 3 h; percent of clofoctol response, vehicle zero | caspase activation, % (no concentration beside the values) | actives 0.066% (n = 330,000) | AID 2462, 2010;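 active means over half of replicate activation scores above 10%, or exactly half above 10 with the replicate mean above 10; inconclusive means replicate mean below 10 yet half the replicates above 10; inactive means over half of replicates below 10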;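 further: wells of about 30 µL received 50 nL stock; many hits fall short of the cut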
# T cruzi repl = inhibitors of intracellular T. cruzi growth, primary screen, luminescence, NIH3T3 host cells | actives 1.4% (n = 300,000) | T. cruzi beta-gal in NIH3T3, 90 h | inhibition, % (test concentration not listed);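 active means mean inhibition across valid replicates above about 55%, limit read from the data; inconclusive means mean below that limit but half or more replicates reach it; inactive means mean below it, under half of replicates reach it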;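 further: signal also drops with host cell toxicity which is not excluded here; 0% = plate median of DMSO wells and 100% = zero luminescence signal; higher percent means less beta-gal luminescence so fewer parasites; stock transfer was 50 nL into about 50 µL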
# Beta apoptosis = inhibitors of cytokine-induced beta cell apoptosis, primary screen, luminescence | AID 435005, 2010 | actives 0.8% (n = 300,000) | INS-1E cytokine-induced death, ATP luminescence, 48 h; percent of positive-control rescue, neutral wells zero | protection from apoptosis, % (concentration not given with the values);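 active means all replicates at 75% or more, or half of them and the mean; inconclusive means half reach 75% but not the mean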;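 further: 0% = cytokine-treated negative control wells and 100% = positive control rescue; higher means more ATP so stronger rescue from cytokine killing; wells of about 40 µL received 100 nL stock; the first replicate is given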
# LANA-H2B inh = blockers of LANA interaction with H2A/H2B – biochemical, FP readout, HTS, primary screen; Protein LANA1 (Human herpesvirus 8 type P (isolate GK18)), Q9QR71; cell-free LANA-H2A/H2B peptide, fluorescence polarization; inhibition, % (test concentration not listed); actives 0.6% (n = 320,000); in the data active means inhibition mostly above about 10%, no sharp cut-off; inactive means mostly below about 6.7%;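 further: stock transfer was 7.5 nL into about 10 µL; 0% = median of vehicle wells and 100% = median of positive control wells; one replicate is shown; the record names a cut of 25% in any replicate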
# Calb FLC = C. albicans growth inhibition with fluconazole, primary screen, CaCi-2 strain, Alamar Blue fluorescence; C. albicans CaCi-2 (fluconazole-resistant clinical isolate) + fluconazole, 48 h; growth inhibition, % (test concentration not listed); actives 0.57% (n = 300,000); AID 1979, 2009;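 active means most replicates above 75%; inconclusive means exactly half above 75%; inactive means most below 75%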;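 further: all wells also contain fluconazole at 8 µg/ml as a sub-toxic cotreatment; 0% = median of DMSO wells and 100% = median of geldanamycin control wells; wells of about 8 µL received 7.5 nL stock; the first replicate is given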
# Vif TR-FRET = inhibitors of Vif binding to APOBEC3G peptide, primary screen, biochemical, TR-FRET, GST-Vif 1-94, biotin-A3G peptide, dose response retest (AID 1117319); Virion infectivity factor (Human immunodeficiency virus type 1 group M subtype B (isolate …; TR-FRET GST-Vif / biotin-A3G peptide binding; higher % means a stronger effect; test concentration not given here; strong numbers were not always called active; one-dose inhibition, %; IC50 in µM for titrated hits; actives 0.57% (n = 260,000);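 active means above the screen mean plus three standard deviations and confirmed in dose response; inconclusive means results disagree or hit not tested in dose response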;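 further: Vif residues 1-94 fused to GST binding biotinylated APOBEC3G peptide 110-148; 0% = full assay without inhibitor and 100% = GST in place of GST-Vif; retest series ran down from 100 µM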
# MLL AF4-AF9 inh = inhibitors of AF4 peptide binding to AF9, primary screen, biochemical, AlphaScreen, biotin-AF4 peptide, FLAG-AF9, single point | actives 0.47% (n = 350,000) | Protein AF-9 (Homo sapiens), P42568 | AID 651704, 2012 | inhibition, % at 10 µM;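 active means every replicate reaching a set inhibition limit, whatever the replicate mean, cut at about 25% in these data; inconclusive means mean inhibition reaches that limit but some replicates miss it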;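 further: 0% = plate neutral control median and 100% = total signal loss; the record names both 10 and 1 µM as test concentration; the first replicate is given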
# Target sequence (P42568 whole entry, looked up): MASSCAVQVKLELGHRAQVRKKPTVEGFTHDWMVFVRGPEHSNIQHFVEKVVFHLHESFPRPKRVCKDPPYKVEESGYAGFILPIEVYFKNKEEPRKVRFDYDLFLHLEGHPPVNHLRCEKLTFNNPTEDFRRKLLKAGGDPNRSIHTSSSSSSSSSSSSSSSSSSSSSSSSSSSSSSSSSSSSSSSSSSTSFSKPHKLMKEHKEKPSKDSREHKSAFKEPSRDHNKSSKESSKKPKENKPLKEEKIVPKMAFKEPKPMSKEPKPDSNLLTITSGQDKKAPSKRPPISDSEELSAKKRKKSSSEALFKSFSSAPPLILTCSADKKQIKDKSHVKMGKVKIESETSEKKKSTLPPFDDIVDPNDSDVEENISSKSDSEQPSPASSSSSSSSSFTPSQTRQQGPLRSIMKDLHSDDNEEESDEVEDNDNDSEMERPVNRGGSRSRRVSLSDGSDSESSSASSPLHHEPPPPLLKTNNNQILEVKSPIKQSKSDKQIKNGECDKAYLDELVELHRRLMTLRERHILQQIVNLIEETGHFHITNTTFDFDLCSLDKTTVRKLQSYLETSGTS
# Active calls of the source: *; ? = inconclusive; . = no result given. Rows were taken by chance; about 4.3% have a hit in one of these screens.
SMILES,RanGTP-Impb inh,Bfl-1 A1 inh,T cruzi repl,Beta apoptosis,LANA-H2B inh,Calb FLC,Vif TR-FRET,MLL AF4-AF9 inh
Cc1c(CCOC(=O)CC23CC4CC(CC(C)(C4)C2)C3)sc[n+]1Cc1ccc([N+](=O)[O-])cc1,2.0,0.2,?,1,-1.5,93*,.,21
CCn1c(SCC(=O)Nc2nc(C)cs2)nnc1-c1cccnc1,1.0,1.1,-5,-1,-3.5,-5,25%,.
OC(CNCc1ccccc1)COCc1ccc(Cl)cc1 (stereo not given),-1.1,-0.4,38,-7,2.6,-4,-8%,-2.3
CN(C)CCCNC(=O)c1cc(C(=O)Cc2ccc(Cl)cc2)c[nH]1,2.4,0.7,44,-6,-3.4,-2,-10%,4.3
CC(CCc1ccccc1)NC(=O)c1cncc(Br)c1 (stereo not given),?,0.8,-12,3,-1.2,-4,-5%,.
C=CCn1ccc2c([N+](=O)[O-])cccc2c1=O,-1.9,0.7,-4,-4,-0.6,-1,-2%,-2.0
Cc1cnc(CNC(=O)c2ccc3oc(Cc4ccc(Cl)cc4)nc3c2)cn1,2.8,0.9,14,2,1.2,4,.,-2.7
COc1cc(Nc2ccccn2)cc(C(=O)Nc2cccc(C(F)(F)F)c2)c1,?,1.6,14,0,3.7,5,-3%,2.9
Cc1ccccc1Cn1c(CN2CCN(C(=O)c3ccco3)CC2)nc2c1c(=O)n(C)c(=O)n2C,1.3,-0.9,-6,5,-5.7,-33,1%,-8.4
Cc1ccccc1N(Cc1cc(=O)[nH]c2ccccc12)C(=O)CCl,0.5,1.3,11,-21,0.5,-5,.,0.8
CCCSc1nsc(SCCC)c1C(N)=O,0.3,-0.3,-12,1,1.3,-3,-7%,.
Cc1csc(NC(=O)C(C)Oc2ccc(Cl)cc2C)n1 (stereo not given),.,0.0,.,5,-4.4,.,-7%,-1.4
CCC(Cc1ccccc1)NS(=O)(=O)c1c(C)nc2scc(C)n2c1=O (stereo not given),3.1,-0.6,-2,-2,4.0,10,.,-1.2
C=CCc1cc(C)ccc1OCC(O)CN1CCN(c2ccccc2)CC1 (stereo not given),?,-0.3,16,-10,-1.0,13,0%,13
CCNC(=S)NS(=O)(=O)c1ccc(CC)cc1,3.9,1.3,-18,-5,0.3,0,3%,.
OCC1(CCOc2ccccc2)CCN(Cc2ccccc2C(F)(F)F)CC1,1.1,-0.1,-19,-7,3.3,-3,.,-3.1
COc1ccc(Nc2nc(N)nc(CSC(=S)N3CCOCC3)n2)cc1,-3.0,-0.4,-10,-6,2.6,10,0%,2.6
CCc1nc2ccccc2n1CCC(C)C,-6.5,-0.6,-15,0,-3.4,9,-7%,.
O=C(CSc1nc(-c2ccccc2)c(-c2ccccc2)[nH]1)NCCN1C(=O)CSC1=O,0.2,.,2,7,-2.9,-8,-3%,.
CCC(=O)N(NC1=NS(=O)(=O)c2ccccc21)S(=O)(=O)c1ccc(C)cc1,-1.7,0.7,-17,-5,5.7,1,.,-3.1
Cc1cccc(Nc2nc(N)c([N+](=O)[O-])c(N3CC(C)OC(C)C3)n2)c1 (stereo not given),-2.4,1.0,11,12,0.4,18,-2%,6.4
COc1cc(-c2nc(-c3ccc(NC(=O)c4ccc5c(c4)OCO5)cc3)no2)cc(OC)c1OC,6.0,-6.6,-9,12,7.0,?,?,.
CC1=CS/C(=C(/C#N)C(=O)NCc2ccco2)N1c1ccccc1,4.2,0.3,-2,.,-2.1,-3,-5%,0.0
Cc1cccc(N2CCN(C(=O)c3cn4ccccc4n3)CC2C)c1 (stereo not given),1.6,0.3,-15,-1,0.7,-2,6%,1.3
C=C[C@@](C)(O)CC[C@@H]1[C@@]2(C)CCCC(C)(C)[C@@H]2CC[C@@]1(C)O,1.5,0.6,27,-6,-5.5,-2,.,-0.4
CCOC(=O)Cn1c(C)c(Br)c(COC)c(C#N)c1=O,4.0,0.9,-4,-7,1.2,-1,?,-0.3
Cc1ccc(C2CN(CCC(N)=O)C(=O)CO2)cc1 (stereo not given),.,-0.3,.,-3,-0.9,.,.,4.0
C#CCNC(=O)/C=C/c1ccc(C)cc1,-1.7,-3.6,0,-2,3.8,-3,-5%,-0.9
COc1cccc(N/C(SCc2ccccc2C)=C(/C#N)C(=O)NCc2cccs2)c1,-2.1,-0.4,46,5,1.6,3,-11%,.
Cc1ccc(C(=O)N2CCN(C(=O)c3ccc(C)cc3)C2)cc1,-4.6,-0.7,-8,-1,-4.5,-7,-8%,-0.2
O=C(Cn1cc([N+](=O)[O-])cn1)N1CCCc2ccccc21,0.7,0.1,-7,-5,1.1,-3,-6%,3.3
CCCn1c(SC(C)C(=O)N2CCOCC2)nc2ccc(Br)cc2c1=O (stereo not given),6.1,-1.3,33,.,-1.9,10,-1%,-21
Cc1ccc(Cl)cc1NC(=O)COC(=O)CC(C)(C)C,3.4,-0.6,-8,-7,1.5,?,.,-1.8
COc1ccc(CSc2nnc(CNS(C)(=O)=O)o2)cc1,4.5,0.3,-14,-7,1.4,-21,1%,.
Cc1noc(C)c1COc1cccc(C(=O)Nc2ccc(OCc3ccccc3)cc2)c1,-2.1,-2.9,20,3,-1.0,0,6%,.
N#Cc1c(NC(=O)c2ccc(Br)o2)n(-c2ccccc2)c2nc3ccccc3nc12,162*,0.7,3,5,2.9,11,-46%,-7.0
Cc1cccc(NC(=O)CSc2nnc(-c3ccncc3)n2C)c1,-0.7,2.6,-7,-3,0.3,-6,?,.
CCN1CCN(S(=O)(=O)CC2(C)C3CCC2(C)C(=O)C3Br)CC1 (stereo not given),-0.4,0.0,17,-9,2.4,-13,?,4.0
NNC(=O)COc1cccc2cccnc12,-2.1,?,-11,2,-1.9,3,0%,.
CCCCC1=NN(C(=O)c2ccco2)C(O)(C(F)(F)F)C1 (stereo not given),2.5,0.4,3,-1,0.1,7,-9%,-1.2
CCCOc1ccc(N2C(=O)CC(N(CCc3ccc(S(N)(=O)=O)cc3)C(C)=O)C2=O)cc1 (stereo not given),-3.2,1.2,3,-5,0.9,-8,-7%,.
CCN(CC)CCNC(=O)C(=O)Nc1cc2c3c(c1)CCN3C(=O)CC2,0.2,0.1,-4,-4,-1.3,-10,.,-1.9
CCOC(=O)c1cnc(N)nc1C(F)(F)F,-0.8,-0.5,-10,-3,-3.8,3,.,-4.7
COc1ccc(OC)c(C(=O)NC(CC(N)=O)c2ccc(NCCN3CCCC3)c([N+](=O)[O-])c2)c1 (stereo not given),-1.2,-4.0,-8,-4,-8.8,7,.,.
COc1ccc(CNC(=O)CCC(=O)Nc2ccc(Cl)cc2)cc1,3.0,0.0,-12,-8,-2.1,3,-5%,-6.0
O=C(c1ccco1)N1CCN(Cc2ccc(F)cc2Cl)CC1,-3.3,-0.3,0,.,-4.8,-12,.,6.0
Cc1cccc[n+]1C1C(c2ccccc2)C(C#N)=C(C(=C=[N-])C#N)NC1(O)C1CC1 (stereo not given),-1.7,-1.1,6,11,2.7,6,30%,.
CCOC(=O)c1ccc(S(=O)(=O)N2CCN(CC(O)COc3ccc(C#N)cc3)CC2)cc1 (stereo not given),1.6,-0.2,-9,-1,-2.7,5,8%,1.3
CCN(CC(=O)Nc1ccc(OC)cc1)C(=O)c1ccc(NS(=O)(=O)c2ccc(C(C)=O)cc2)cc1,0.8,-0.2,-2,2,3.1,1,0%,0.1
CC1(C)Cc2c(cnn2-c2ccccc2)C(NC(=O)CCCN2CCCC2=O)C1 (stereo not given),-2.7,-0.7,-18,.,3.8,2,-2%,-2.0
Cc1ccc(NCCNc2ccc(C)cc2)cc1,-2.7,-0.9,13,5,-11,-5,23%,.
COc1ccc(CCNC(=O)C(=O)NCc2ccccc2)cc1OC,-1.8,0.9,9,-4,-0.6,11,-6%,.
O=C(CCn1c(=O)oc2ccccc21)N1CCN(c2ccccc2Cl)CC1,-0.8,0.8,6,14,-5.4,13,14%,.
Cc1cc(NC(=O)CC23CC4CC(C2)CC(CC(=O)Nc2cc(C)on2)(C4)C3)no1,-2.6,-0.5,7,4,4.0,-16,-4%,.
COc1ccccc1NC(=O)CCSc1nnnn1C,?,0.1,-2,2,-2.4,-5,-7%,.
Cc1ccc(NC(=O)COC(=O)c2ccc(-n3cnnn3)cc2)c(Br)c1,.,-0.1,.,-18,0.5,.,?,4.1
Cc1nn(Cc2c(F)c(F)c(F)c(F)c2F)c(C)c1NC(=O)c1nn(C)cc1[N+](=O)[O-],1.1,1.3,7,-2,-3.8,-7,-4%,.
O=C(/C=C/c1ccc2c(c1)OCO2)NCCSCc1ccc(Cl)cc1Cl,5.7,.,3,.,.,-2,-3%,.
COc1ccc(C)cc1NS(=O)(=O)c1ccc2c(c1)N(C(C)=O)CCO2,1.7,0.2,2,-4,0.0,1,-2%,2.8
CCc1ccc(NC(=O)C2CCN(S(=O)(=O)c3ccc4c(c3)CC(C)N4C(C)=O)CC2)cc1 (stereo not given),1.3,-0.3,14,56,2.5,24,.,-0.6
# The listing continues:
SMILES,RanGTP-Impb inh,Bfl-1 A1 inh,T cruzi repl,Beta apoptosis,LANA-H2B inh,Calb FLC,Vif TR-FRET,MLL AF4-AF9 inh
O=C(Cc1cccs1)Nc1ccc(-c2nnc(-c3ccco3)o2)cc1,6.3,-1.3,-20,15,1.3,-19,-8%,-1.8
Cn1cccc1C(=O)OCC(=O)NCc1ccc2c(c1)OCO2,.,-0.3,.,-1,4.0,.,.,-1.6
O=C(O)c1cccc(N2C(=O)c3cc([N+](=O)[O-])cc4cc([N+](=O)[O-])cc(c34)C2=O)c1,4.3,-0.7,14,15,4.3,-13,.,0.1
CCn1c(SCC(N)=O)nc2sc3c(c2c1=O)CCN(C)C3,2.3,0.3,.,-5,2.3,-1,14%,1.7
O=C(NCCN1CCN(Cc2ccccc2)CC1)C1CC(=O)N(C2CCCC2)C1 (stereo not given),-2.6,-0.3,0,7,1.9,-7,?,.
O=C(/C=C/c1cccc(Cl)c1)Nc1ccncc1,-0.6,-0.3,-7,1,0.4,21,-4%,.
COc1ccc(C(=O)Nc2ccc(N3CCN(Cc4ccccc4)CC3)cc2)cc1,0.6,2.3,0,.,5.9,-8,13%,1.3
COc1ccc(CCNC(=O)COc2cc(C)cc3oc(=O)cc(C)c23)cc1OC,9.8,0.5,-11,5,-0.9,5,.,-2.9
O=C(NCc1cccnc1)c1cn(-c2ccccc2)nc1-c1cccs1,3.1,-0.3,7,1,5.3,4,-2%,3.3
COc1cccc(OCC(=O)Nc2ccccc2C(N)=O)c1,6.3,-3.0,-3,-1,0.6,5,-4%,.
COc1ccc(NC(=O)c2c(F)c(F)c(F)c(F)c2F)cc1Cl,-1.5,0.6,11,6,2.6,-7,1%,.
